# RE007 growth inh: less growth of the S. pombe RE007 Vpr strain. S. pombe RE007 Vpr strain, BacTiter-Glo ATP luminescence, 24 h; control for the full effect not named in the record. Potency, µM (top dose mostly 92.2 µM), without a hit: top-dose activity change, negative = less growth. hit rate 0.21% among 360,000. AID 651644; active = well fitted falling curve with a large enough effect; inconclusive = small, poorly fitted or top-dose-only effect; inactive = no such curve, though single readings can be large or run the other way;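 note: % is set by controls: 0 for no effect and ±100 for the full control effect; nearly all actives have a fitted effect of over 50% in size; the assay follows cell death caused by Vpr and the record does not say whether a fall means rescue or toxicity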
#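 Fission yeast strain RE007, carrying one chromosomally integrated HIV-1 vpr copy, was seeded at OD 0.01 in PMG+AL medium with 23 nL pinned compound. After 24 h at 30 °C and 99% humidity, viability was read by BacTiter-Glo luminescence.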
# Marburg entry inh: blocks Marburg virus binding to or entry into cells. Marburg virus pseudotyped entry inhibition, cell reporter; control for the full effect not named in the record; about a third of the inactives were read at about 46 µM. Potency, µM (top dose mostly 37.8 µM), inactives show at the highest dose activity change, negative = inhibition, hits mostly inhibitors. hit rate 1.8% among 300,000. AID 540276; active = well fitted inhibition curve with a large enough effect; inconclusive = small, poorly fitted or top-dose-only effect, or effect the other way; inactive = flat fitted curve, though single readings scatter; tested in HEK293 cells; about a fifth of its hits are not listed in these tables; note: % is set by controls: 0 for no effect and ±100 for the full control effect; luciferase read-out
# Cruzain noTriton: cruzain (T. cruzi) inhibition without detergent; P25779; purified cruzain, Z-FR-AMC fluorescence, no detergent; Potency, µM, without a hit: max response, negative = inhibition, most hits filed as inhibitors; hit rate 2.3% among 200,000; AID 1476; active = well fitted curve in the direction sought with a large enough effect; inconclusive = small, poorly fitted or top-dose-only effect, or another doubt; inactive = no such curve, though single readings can be large; an effect the other way counts as inactive or inconclusive;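 note: plate controls were enzyme without inhibitor for no effect and buffer without enzyme for full effect; nearly all actives have a fitted effect of over 40% in size; top concentration of the series not given in the record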
# Target sequence (P25779 123-467 limits assumed): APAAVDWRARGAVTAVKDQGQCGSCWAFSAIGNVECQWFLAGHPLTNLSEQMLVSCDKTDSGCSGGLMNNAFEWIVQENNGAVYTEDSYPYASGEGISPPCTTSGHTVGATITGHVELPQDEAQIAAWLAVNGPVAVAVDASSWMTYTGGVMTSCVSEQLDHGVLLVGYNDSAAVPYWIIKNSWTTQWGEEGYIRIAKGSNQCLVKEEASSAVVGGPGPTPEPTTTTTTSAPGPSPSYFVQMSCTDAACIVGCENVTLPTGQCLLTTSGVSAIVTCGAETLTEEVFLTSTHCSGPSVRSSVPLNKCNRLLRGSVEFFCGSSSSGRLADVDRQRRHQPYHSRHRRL
#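 Purified cruzain at 1.5 nM, pre-incubated 15 min with compound at room temperature in 100 mM sodium acetate pH 5.5, 5 mM DTT, 0.00005% Triton X-100. Reaction started with 2 uM Z-FR-AMC; AMC fluorescence increase over 60 s gives rate.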
# Cruzain Triton: inhibitors of Trypanosoma cruzi cruzain with detergent | P25779 | purified cruzain, Z-FR-AMC fluorescence, 0.01% Triton | Potency, µM, inactives show max response, negative = inhibition, hits mostly inhibitors | hit rate 0.43% among 200,000 | AID 1478; active = well fitted curve in the direction sought with a large enough effect; inconclusive = small, poorly fitted or top-dose-only effect, or another doubt; inactive = no such curve, though single readings can be large; an effect the other way counts as inactive or inconclusive;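 note: plate controls were neutral wells for no effect and buffer without enzyme for full effect; nearly all actives have a fitted effect of over 40% in size; top concentration of the series not given in the record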
#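 Sodium acetate buffer (100 mM, pH 5.5) containing 5 mM DTT and 0.01% Triton X-100 hosted 1.5 nM cruzain and test compound for 15 min at room temperature. Cleavage of 2 uM Z-FR-AMC was then tracked by fluorescence.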
# Lassa entry inh: inhibitors of Lassa virus binding or cell entry. Lassa virus pseudotype entry inhibition, cell reporter; control for the full effect not named in the record. Potency, µM (doses to about 37.9 µM), without a hit: at the top dose activity change, negative = inhibition, usual class: inhibitors. hit rate 1.2% among 300,000; active means well fitted inhibition curve with a large enough effect; inconclusive means small, poorly fitted or top-dose-only effect, or effect the other way; inactive means flat fitted curve, though single readings scatter; tested in HEK293 cells; note: % is set by controls: 0 for no effect and ±100 for the full control effect; nearly all actives have a fitted effect of over 50% in size; luciferase read-out
# 2A StopGo: FMDV 2A StopGo reporter, luciferase signal | Potency, µM (series often up to 57.9 µM), inactives show at the highest dose signal change, negative = less light | human cells with a luciferase reporter of 2A StopGo recoding; control for the full effect not named in the record | hit rate 1.2% among 410,000; active = well fitted falling curve with a large enough effect; inconclusive = small, poorly fitted or top-dose-only effect; inactive = no such curve, though single readings can be large or run the other way; tested in HEK293T cells; note: % is set by controls: 0 for no effect and ±100 for the full control effect; nearly all actives have a fitted effect of over 45% in size; luciferase light after 4 h
# SARS PLP yeast: inhibitors of SARS-CoV papain-like protease in yeast. S. cerevisiae expressing SARS-CoV PLpro, growth rescue; control for the full effect not named in the record. Potency, µM (doses to about 32.9 µM), inactives show at the top dose activity, positive = growth rescue. hit rate 0.19% among 330,000. AID 485353; note: 0% is about no effect; nearly all actives have a fitted effect of over 55% in size; growth read by luminescence after 48 h
# NS1 function inh: inhibitors of influenza NS1 protein function; S. cerevisiae slowed by influenza A NS1, growth recovery by OD600; Potency, µM (top dose mostly 46.1 µM), for the others: top-dose activity, positive = more growth; hit rate 0.4% among 270,000; AID 2326; note: actives are rising curves; nearly all actives have a fitted effect of over 50% in size
#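 A cell-based growth assay was used: compounds that relieve NS1-induced slow growth of budding yeast raise OD600. Assay medium was yeast nitrogen base with ammonium sulphate and -URA supplement, pH 6.0, with 2% galactose.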
# * = called active by the depositor; ? = inconclusive; nt = no result given; & = joins results of further samples; [ ] = dose if it differs, or a comment. Unless noted, calls come from the whole dose curve; as a rule, active means well fitted rising curve with a large enough effect; inconclusive means small, poorly fitted or top-dose-only effect; inactive means no such curve, though single readings can be large or run the other way. Potency is the fitted concentration of half-maximal effect.
Compound,SARS PLP yeast,Cruzain noTriton,Marburg entry inh,RE007 growth inh,Cruzain Triton,Lassa entry inh,2A StopGo,NS1 function inh
Nc1nnc(Cc2cccc(Br)c2)s1,-0.7%,nt,7.4%[46.1 µM],-6.3%,nt,-14.8%[46.1 µM],4.2%,-3.7%
O=C(c1ccc(Br)s1)N1CCN(Cc2ccc3c(c2)OCO3)CC1,8.1%,6.1%,24.1%,-5.2%,2.2%,16.2%,-22.5%,-14.4%
CC(=O)N1c2ccc(S(=O)(=O)NCC3CCC(C(=O)Nc4cccc(F)c4)CC3)cc2CC1C (stereo unspecified),nt,11.8%,nt,nt,-2.0%,?,20µM*,nt
Cc1nc(Nc2ccc(Cl)cc2)c2oc3ccccc3c2n1,-1.3%,nt,-3.8%[46.1 µM],-8.4%,nt,4.7%,-21.5%,2.7%
Cc1ccc(N(C(=O)CNC(=O)c2ccco2)C(C(=O)NC2CCCC2)c2cccnc2)cc1F (stereo unspecified),-0.3%,nt,3.7%[46.1 µM],-7.9%,nt,?,9.6%,-14.4%
Cc1ccccc1C(=NCCCN(C)C)c1ccccc1C,-0.9%,2.1%,?,13.6%,0.7%,?,-8.1%,5.8%
COc1ccc(Cl)cc1S(=O)(=O)n1ccnc1C(C)C,7.6%,21.5%,nt,-1.7%,9.8%,nt,36.7%[activator],1.3%
O=C(O)c1nccnc1C(=O)Nc1ccc(Cl)cn1,-0.6%,nt,3.3%[46.1 µM],6.8%,nt,-4.4%,-4.5%,-0.7%
CSc1nc2ccc(S(=O)(=O)N3CCCCC3)cc2s1,6.3%,-6.5%,-1.1%,-1.9%,-0.4%,3.2%,15.0%,-10.4%
Cc1ccc(NC(=S)Nc2cc(C)on2)cc1,0.8%,nt,?,-16.0%,nt,4.4%[46.1 µM],52.1%[activator],-5.0%
COc1ccccc1C(=O)NCC(=O)NCC1(N2CCCCC2)CCCCC1,1.8%,nt,-24.9%,-1.9%,nt,-1.4%,-14.3%,nt
O=C(COc1ccccc1)NCCc1csc(-c2ccc(F)cc2)n1,nt,-10.5%,nt,nt,-5.0%,-5.2%[46.1 µM],-28.7%,nt
COc1ccc(-c2cc(C(F)(F)F)n3nc(N)nc3n2)cc1,-3.3%,9.8%,-0.4%,-4.1%,-6.4%,12.5%,33.8%[activator],-2.0%
Cc1ccc(-c2csc(=Nc3cccnc3)n2CCCN2CCCC2=O)cc1C,4.2%,1.2%,-23.7%,7.3%,-0.2%,-12.7%,?,-30.7%
CCCc1cnc(N2CCN(C(=S)NC)CC2)nc1,0.0%,nt,?,-6.4%,nt,5.9%,52.3%[activator],-6.5%
Cn1c(NNC(=O)/C=C/c2ccc3c(c2)OCO3)cc(=O)n(C)c1=O,0.3%,nt,nt,8.8%,nt,nt,-8.6%,8.5%
O=C(CO/N=C/c1ccc(OC(F)F)cc1)NC1CCCCCC1,-6.5%,nt,?,6.9%,nt,-20.9%,?,nt
CC1CCCCN1C(=O)c1cc(Cl)ccc1[N+](=O)[O-] (stereo unspecified),25.2%,15.1%,?,-0.8%,-0.4%,10.8%,-11.9%,2.4%
CCC(CC)C(=O)N(c1ccc(F)cc1)C1C=CS(=O)(=O)C1 (stereo unspecified),-0.9%,-8.8%,-8.1%,7.0%,-0.9%,-9.0%,nt,-3.6%
O=C(COC(=O)CSc1ccc(Br)cc1)NCc1ccco1,-0.5%,nt,8.6%,3.5%,nt,14.3%,-0.1%,nt
CCc1ccccc1Nc1nn2c(=O)c3ccc(C(=O)NCc4ccccc4Cl)cc3nc2s1,nt,-9.3%,nt,nt,-2.2%,-19.1%[46.1 µM],-0.2%,nt
CC(C)c1c(C(=O)N/N=C/c2ccc(C(F)(F)F)cc2)nnn1-c1nonc1N,5.5%,nt,nt,-6.4%,nt,nt,-24.6%,-6.7%
O=[N+]([O-])c1cc(/C=N/N2CCCCC2)ccc1Cl,-1.3%,nt,11.8%[46.1 µM],-1.3%,nt,?,11.4%,1.3%
O=C(CC1SC(N2CCCC2)=NC1=O)Nc1ccc(C(=O)NCCOc2ccccc2F)cc1 (stereo unspecified),-2.9%,nt,2.0%,-7.2%,nt,-13.1%,28.6%,nt
COc1cccc(CC(NC(C)=O)C(=O)NC2CCN(c3c(Cc4ccccc4)c(C)nc4ncnn34)CC2)c1 (stereo unspecified),23.0%,?,?,-2.1%,-4.2%,-2.7%&2.2%,0.0%,2.3%
Cc1ccc(CNC(=O)CN2C(=O)NC(C)(c3cccc(Br)c3)C2=O)cc1 (stereo unspecified),0.0%,nt,nt,2.1%,nt,nt,-4.4%,-2.4%
COc1cccc(CN(C)C(=O)c2ccc3c(=O)n4c(nc3c2)CCC4)c1OC,0.1%,nt,29.3%,-0.8%,nt,?,28.0%,-1.9%
COc1ccccc1CN(CC(=O)NCc1ccco1)C(=O)CNS(=O)(=O)c1ccc(C)cc1,4.9%,0.6%,1.3%&1.3%,48.4%,-8.9%,-0.6%,0.0%,-8.3%
O=C(c1ccccc1)N1N=C(C(F)(F)F)CC1(O)c1ccc(F)cc1 (stereo unspecified),-3.1%,nt,-19.4%,2.3%,nt,-15.4%,-2.9%,17.8%
CCc1cc(=O)oc2cc(C)cc(OCC(=O)NCc3ccccn3)c12,3.3%,nt,nt,3.0%,nt,nt,?,-0.9%
COc1ccc(-c2coc3cc(OC)cc(O)c3c2=O)cc1,-2.4%,-10.6%,-10.9%,17.0%,-1.7%,?,42.9%[activator],2.8%
Cc1noc(/C=C/c2ccco2)c1S(=O)(=O)N1CCC(C(=O)Nc2ccc(Cl)cn2)CC1,-15.3%,6.31µM*,6.51µM*,30.1%,-4.3%,?,?,17.0%
O=C(Nc1ccc(-c2noc(-c3cccs3)n2)cc1)c1cccnc1,4.9%,?,?,-0.1%,-6.7%,?,-6.6%,-8.9%
O=C(O)c1cccc(NN=C2c3ccccc3-c3ccccc32)c1,-31.0%,nt,28.1%[46.1 µM],?,nt,-0.8%,6.2%,nt
COc1cccc(-n2c(SCc3ccccc3C)nc3c([nH]c4ccccc43)c2=O)c1,nt,3.98µM*,nt,nt,0.0%,-22.4%[46.1 µM],-24.3%,nt
O=P(CCC(F)(F)F)(CCC(F)(F)F)CCC(F)(F)F,11.0%,-1.7%,14.6%,4.6%,2.0%,6.1%,-10.9%,2.4%
Cc1ccccc1CC1(CO)CCCN(C(=O)Cc2c(F)ccc(F)c2F)C1 (stereo unspecified),-2.9%,nt,nt,-2.7%,nt,nt,-27.8%,2.1%
Cn1nnnc1SCC(=O)Nc1c(Cl)cccc1Cl,4.0%,0.6%,28.5%[46.1 µM],9.8%,8.2%,1.0%,5.8%,6.5%
CC(C)c1ccc(OCc2nc(-c3ccccn3)no2)c(Br)c1,-13.8%,?,?,-16.7%,-10.2%,?,-13.4%,-141.0%
CC1=C(C)CC2(C(=O)NC(=S)NC2=O)C(C)C1 (stereo unspecified),nt,nt,18.7%,-8.4%,nt,5.0%,-11.6%,nt
NC(=O)Nn1c(CCC(=O)O)ccc1-c1ccc(Br)cc1,0.5%,6.8%,13.5%,-3.6%,3.4%,24.6%,0.3%,-5.3%
Cc1cccc(NC(=O)CSc2nc3nc4c(cc3c(=O)n2-c2ccccc2)CCCC4)c1,-9.0%,-29.4%,10µM*,13.1%,-3.2%,-3.0%,-22.2%,6.1%
Cc1ccc(-c2csc(NC(=O)c3cccc(N4C(=O)CCC4=O)c3)n2)o1,27.2%,21.0%,nt,-1.7%,-12.5%,nt,-20.6%,-9.3%
CCOC(=O)c1ccc(S(=O)(=O)N2CCN(c3ccccn3)CC2)cc1,nt,nt,-8.8%[46.1 µM],-12.9%,nt,nt,-11.6%,4.6%
Cc1ccc(C)c(Cn2c(=O)c3c(nc4n3CCN4Cc3ccco3)n(C)c2=O)c1,4.1%,5.7%,12.1%,3.7%,-1.1%,1.8%,0.0%,-8.0%
O=C(NC1CCCCCC1)C1CCN(S(=O)(=O)c2cccc3cccnc23)CC1,2.3%,-4.8%,-4.5%,-7.9%,-1.8%,nt,-16.1%,-18.9%
CCOCCc1nn2c(=O)cc(COC(=O)CNC(=O)c3ccc(F)cc3)nc2s1,nt,2.0%,nt,nt,-0.9%,-14.8%[46.1 µM],-22.4%,nt
CC(C(=O)NCCc1ccccc1)N1c2cccc3cccc(c23)S1(=O)=O (stereo unspecified),-8.1%,nt,11.3%[46.1 µM],-2.8%,nt,0.3%[46.1 µM],-10.9%,0.8%
COc1cc(-c2noc(C)c2C#Cc2ccc(N)cc2)cc(OC)c1OC,-3.3%,nt,nt,7.9%,nt,nt,9.9%,3.2%
Cc1ccccc1NC(=O)CN1C(=O)CCn2nc(-c3cccn3C)cc21,nt,?,nt,nt,-0.1%,4.8%[46.1 µM],-14.0%,nt
CCCn1c(O)c(C=Nc2ccccc2)sc1=S,0.4%,nt,-29.3%[46.1 µM],8.0%,nt,-24.2%,25.5%,-4.3%
COc1ccc(C2CC(=O)Oc3cc(C)cc(C)c32)cc1 (stereo unspecified),3.3%,2.3%,nt,26.7%,0.8%,nt,0.0%,nt
Cn1cccc1CNC(=O)Nc1ccc(Cl)cc1,-11.0%,-27.9%,-7.9%,1.7%,2.8%,-25.4%,22.7%,4.5%
Brc1[nH]nc2ccccc12,0.2%,-2.5%,?,-17.8%,3.9%,3.0%,nt,3.5%
Cc1c(C)c2cc3c(c(C)c2oc1=O)OCN(CCc1ccccc1)C3,nt,?,5.0%[46.1 µM],nt,2.4%,14.0%[46.1 µM],-6.4%,nt
CCc1c(C(=O)NCc2ccccc2Cl)[nH]c(C)c1C(C)=O,-1.3%,-13.2%,?,10.2%,4.2%,?,38.9%[activator],-5.2%
Fc1ccc(/C=N/Nc2cc(N3CCOCC3)ncn2)cc1,5.5%,nt,?,13.0%,nt,?,-1.5%,12.2%
COc1ccc(Cl)cc1S(=O)(=O)N1CCCC1=O,-0.3%,nt,?,1.2%,nt,-1.5%,12.5%,1.3%
